# Compound activity as filed in PubChem BioAssay.
# MT1-MMP act inh – MT1-MMP (human) activation inhibition; HT1080 RFP-PRO-GFP cells, GFP/RFP ratio fluorescence, overnight; percent of plate control window, DMSO zero; GFP/RFP ratio change, % at 20 µM; 0.061% of 360,000 active; AID 651647;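 active means GFP/RFP ratio change of at least 30% with cell ATP level not reduced by more than half and red fluorescence within 50% of control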; further: strong numbers were not always called active
#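 Read-out: GFP/RFP fluorescence ratio; Test system: RFP-PRO-GFP reporter HT1080 cells; Compound dosing: single-point 20 µM compound, 1% DMSO; Times: overnight compound exposure at 37 °C.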
# CSC inhib – blocks cancer stem cells; inhibition, % at 7.5 µM; 1.1% of 300,000 active; cancer stem cell-like cells viability, luminescence; AID 2717;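 active means mean at 75% or more and at least half the replicates too; inconclusive means mean and replicates disagree; tested in HMLE shEcad cells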;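 further: 0% = median of negative and 100% = median of positive control wells; the first replicate is given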
# PABP FP inh – blocks human PABP binding to poly(A) RNA | fluorescence polarization | inhibition, % at 35 µM | 1% of 290,000 active | AID 2014;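 active means 50% or more with normal probe brightness, or confirmed in later tests; inconclusive means above 50% with abnormal brightness, or retests that disagree; inactive means below 50% or failed in later tests; about a fifth of its hits are not listed in these tables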;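 further: calls also rest on retests at 20 µM and on dose response follow-up; controls were probe without protein and protein plus probe with vehicle; some compounds called inactive have numbers as strong as hits; many hits fall short of the cut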
# Target sequence (P11940 whole entry, looked up): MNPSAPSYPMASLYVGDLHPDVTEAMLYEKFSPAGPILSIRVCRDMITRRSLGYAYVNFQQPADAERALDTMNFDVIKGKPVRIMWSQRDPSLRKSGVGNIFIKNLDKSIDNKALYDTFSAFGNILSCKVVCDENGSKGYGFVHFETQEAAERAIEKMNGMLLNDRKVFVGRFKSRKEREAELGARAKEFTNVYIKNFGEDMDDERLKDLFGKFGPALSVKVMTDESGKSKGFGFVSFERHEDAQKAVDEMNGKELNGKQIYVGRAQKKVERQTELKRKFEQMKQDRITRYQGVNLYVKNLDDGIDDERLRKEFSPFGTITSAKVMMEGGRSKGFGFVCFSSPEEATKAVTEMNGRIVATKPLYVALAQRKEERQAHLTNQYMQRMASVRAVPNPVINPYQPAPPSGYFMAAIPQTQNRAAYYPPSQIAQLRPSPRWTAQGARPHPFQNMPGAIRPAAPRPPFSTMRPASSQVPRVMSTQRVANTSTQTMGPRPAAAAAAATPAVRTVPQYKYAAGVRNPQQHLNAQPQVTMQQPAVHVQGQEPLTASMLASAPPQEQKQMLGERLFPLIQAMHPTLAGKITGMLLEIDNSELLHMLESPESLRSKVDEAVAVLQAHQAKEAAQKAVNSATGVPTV
# Rce1 inh – inhibitors of yeast Ras-converting enzyme; Q03530; yeast membranes, quenched prenylated peptide cleavage fluorescence; calls only; 0.27% of 290,000 active; AID 2563;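 active means fall in fluorescence gain of 50% or more versus controls, with final raw signal at or below 3038400; inconclusive means same 50% fall but final raw signal above 3038400; inactive means fall in fluorescence gain under 50%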;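 further: plate controls were neutral control wells for no effect and wells lacking membranes for full effect; tested at 10 µM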
# eIF4H inh – inhibitors of RNA binding by human eIF4H. eIF4H fluorescence polarization binding assay. inhibition, % at 35 µM. 0.94% of 290,000 active. AID 2012;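 active means 50% or more with normal probe brightness, or confirmed in later tests; inconclusive means above 50% with abnormal brightness, or retests that disagree; inactive means below 50% or failed in later tests; about a fifth of its hits are not listed in these tables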;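 further: calls also rest on retests at 20 µM and on dose response follow-up; 0% = protein and probe with vehicle and 100% = probe without protein; strong numbers were not always called active; many hits fall short of the cut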
# Env fusion inh – HIV envelope-mediated fusion inhibition | 1.1% of 360,000 active | inhibition, % at 12.3 µM | AID 651610 | HeLa-JRFL Env/CEM21 cell fusion, luciferase;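 active means mean replicate inhibition score of at least 50 and every replicate individually at or above 50; inconclusive means only one of the two criteria met; inactive means mean below 50 and not all replicates reaching 50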;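 further: 0% = plate neutral controls and 100% = maraviroc near 300 nM; one replicate is shown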
# Yeast UUG start – modulators of start codon recognition fidelity in yeast | S. cerevisiae UUG-firefly luciferase reporter, luminescence/redox ratio | activity score, % at 18.7 µM | 0.13% of 350,000 active | AID 602363;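 active means replicate mean at a twofold rise or more, about +100% in these data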;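 further: firefly luciferase made from a UUG start codon reports start codon fidelity; reporter light over untreated wells divided by growth signal over untreated wells; some hits fall short of that in this replicate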
# eIF4H inh retest – further read-out of eIF4H inh, marked with its call; inhibition, %; compound at 20 µM; confirmation average;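 mean of two retest wells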
# PABP FP inh retest – recorded beside PABP FP inh, whose call it bears; inhibition, %; compound at 20 µM; confirmation repeats;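 mean of two retest wells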
# MT1-MMP act inh RFP – further read-out of MT1-MMP act inh, marked with its call; RFP signal change, %; measured here: RFP expression control read;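 0 = vehicle wells; hits needed this value within 50% of zero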
# * hit, by the source's call; i = inactive; ? = inconclusive; nt = not tested or not shown; & = joins results of further samples.
SMILES,MT1-MMP act inh,MT1-MMP act inh RFP,CSC inhib,PABP FP inh,Rce1 inh,eIF4H inh,Env fusion inh,Yeast UUG start,others
CN1CC(=O)Nc2ccccc2C1=O,1,4,-18,7,i,-4,-4,nt,
CCOC(=O)c1ccc(NC(=O)c2ccco2)cc1,-4,-3,-9,1,i,-4,-74,-10,
O=C(COC(=O)c1ccc([N+](=O)[O-])o1)Nc1cccc2ccccc12,-2,-3,-6,13,nt,-9,-24,nt,
CC(=O)Nc1ccc(/C=N\NC(=O)CNS(=O)(=O)c2ccc([N+](=O)[O-])cc2)cc1,1,3,-11,0,i,-5,1,-16,
COc1ccc(OC)c(C(C)NC(=O)C23CC4CC(CC(C4)C2)C3)c1 (stereo not given),2,1,-11,-4,i,1,12,4,
Cc1ccc(NC(=S)NCCC(c2ccccc2)c2ccccc2)c(C)c1,-4,-6,15,14,i,3,-26,-19,
C=CCNC(=S)N/N=C/c1ccc(N(CC)Cc2ccccc2)cc1,-14,-9,18,12,i,3,-22,-17,
CCN1C(=O)/C(=C\N(C(C)=O)c2ccccc2)OC1=S,-2,1,0,-4,i,-10,nt,-22,
CC(C)NC(=O)C(=O)Nc1ccc2c(c1)N(S(=O)(=O)c1cccs1)CCC2,1,-1,nt,nt,i,nt,-1,-9,
CN(C)CCCN(Cc1ccccc1)C(=S)Nc1ccc(OC(F)F)cc1,-3,-1,2,0,i,-10,35,-20,
COc1ccc(C2C(C#N)=C(N)Oc3c2sc2nc(C)cc(C)c32)cc1 (stereo not given),-9,-12,11,6,i,-6,nt,nt,
CCOC(=O)c1nc(S(C)(=O)=O)ncc1Cl,-11,1,nt,7,i,-6,nt,-26,
CCC(=O)Nc1nnc(SCC(=O)Nc2ccc3c(c2)OCCO3)s1,2,6,nt,7,i,-4,13,-5,
O=C(Cn1cc(C(F)(F)F)cc(Cl)c1=O)NCc1ccc(Cl)cc1,-1,6,7,-5,i,4,-11,-28,
O=C(c1cccs1)N1CCC(c2nc3c(nnn3Cc3ccccc3)c(=O)[nH]2)CC1,-9,-7,9,2,i,86,-57,2,eIF4H inh retest=-4;PABP FP inh retest=12
CCOC(=O)NC1(C(F)(F)F)C(=O)N(Cc2ccccn2)C2=C1C(=O)CC(C)(C)C2 (stereo not given),-4,-1,-3,5,i,-13,-21,-15,
O=C(O)CC1(CC(=O)N2CCC(C(=O)O)CC2)CCCC1,0,3,-3,-2,i,0,13,nt,
Cc1[nH]ccc(=O)c1OCc1ccccc1,2,3,-12,-3,i,-13,-13,-15,
COC(=O)/C(C#N)=C/c1c(Oc2cc(C)cc(C)c2)nc2ccccn2c1=O,2,0,-7,-7,i,-3,1,-16,
COc1ccc(CCNc2ccc(C(CC(N)=O)NC(=O)Cc3ccc(Br)cc3)cc2[N+](=O)[O-])cc1 (stereo not given),14,-5,-8,-7,i,30,74*,-14,
COc1ccc(N(CC(=O)NCC2CCCO2)C(=O)CCC(=O)Nc2nccs2)cc1 (stereo not given),4,0,nt,nt,nt,nt,-13,-8,
Cc1ccccc1S(=O)Cc1ccc(C(=O)NCCCN2CCCCC2)o1 (stereo not given),-1,4,-6,3,i,-1,3,-14,
COc1ccc(NC(=O)CCC(=O)c2cccs2)cc1S(=O)(=O)Nc1ccccc1Cl,1,-5,30,-14,i,6,8,-3,
N#Cc1ccc(COC(=O)CN2C(=O)NC3(CCCC3)C2=O)cc1,3,1,nt,nt,nt,nt,0,-19,
O=S(=O)(Cc1ccccc1Cl)N1CCN(Cc2ccc3c(c2)OCO3)CC1,-2,2,nt,17,nt,-10,nt,-10,
Cc1ccc(NC(=O)CCC(=O)NNC(=O)CCc2ccccc2)c(C)c1,4,4,-1,2,i,-17,-10,-7,
COc1ccccc1-c1csc(C(O)c2ccc(F)cc2)n1 (stereo not given),-1,-2,nt,nt,nt,nt,-6,-4,
O=C(O)c1cccc(S(=O)(=O)Nc2cccc(S(=O)(=O)N3CCCCCC3)c2)c1,2,0,-30,-7,i,2,-1,nt,
CC(=O)Nc1ccc(-c2csc(Nc3ncccn3)n2)cc1,1,-1,-11,51,nt,-6,-17,nt,eIF4H inh retest=-2;PABP FP inh retest=2
O=C(NCc1ccccc1)C1=C[C@H](C2CCCCC2)C[C@H](OCCCCO)O1,-3,1,-9,nt,i,nt,7,15,
CN1CCN(C(=O)CCN2C(=O)/C(=C\c3ccc(F)cc3)SC2=S)CC1,-1,-3,11,nt,nt,nt,-77,-20,
COc1ccc(C)cc1NC(=O)COC(=O)Cc1c[nH]c2ccccc12,2,4,nt,nt,nt,nt,0,-8,
CC(C)C[C@H](NC(=O)c1[nH]cnc1C(=O)N[C@@H](Cc1ccccc1)C(=O)OC(C)(C)C)C(=O)OCc1ccccc1,-18,-18,2,0,i,6,58*,-15,
O=C(NCc1cn2ccccc2n1)C1CCC(=O)N(Cc2ccccc2F)C1 (stereo not given),1,2,16,8,i,8,3,-14,
CCOC(=O)c1ccc(S(=O)(=O)Nc2cc(S(=O)(=O)Nc3ccc(OC)cc3)ccc2O)cc1,3,3,8,nt,nt,nt,7,-8,
CC(C(=O)NC1CCCCCC1)N(c1ccccc1)S(C)(=O)=O (stereo not given),-2,1,8,-3,i,3,-83,-4,
CC(C)=CCC/C(C)=C/COc1ccc2ccc(=O)oc2c1,1,-4,19,4,i,6,nt,5,
CC(C)C(OC(=O)c1ccco1)C(=O)NC1CCCC1 (stereo not given),-4,-1,-5,-4,i,2,18,-16,
COc1ccc(NC(=O)c2ccco2)cc1NC(=O)c1ccco1,1,-3,-1,4,i,2,-51,-12,
O=C(CCCOc1ccccc1)NC(=S)Nc1ccccc1,10,-3,5,1,i,6,2,-14,
COc1ccc(CCNCc2c(OC)ccc3ccccc23)cc1OC,2,6,11,3,i,-12,11,-2,
CC1(C)CC2(CC(c3ccccc3)Oc3cc(O)ccc32)NC(=S)N1 (stereo not given),3,-3,-5,7,i,1,-22,-5,
CCOC(=O)C(=CNc1ccc(OC)cc1[N+](=O)[O-])C(=O)OCC,5,4,-6,4,i,-4,-9,-19,
NS(=O)(=O)c1ccc(CCNC(=O)c2ccc(S(=O)(=O)N3CCCCC3)cc2)cc1,3,1,nt,-6,i,-8,-90,-4,
Cc1ccc2nc(SCC(=O)N(C)C3CCS(=O)(=O)C3)[nH]c2c1 (stereo not given),0,2,-9,nt,nt,nt,nt,7,
COc1ccc(C(=O)NNC(=O)CSc2nnc(C3CC3)n2C)cc1,-3,0,1,-6,i,5,-7,0,
CCc1nnc(NC(=O)CSc2ccc(-c3nc4ccccc4[nH]3)cn2)s1,5,-3,4,-2,i,-15,nt,-26,
O=C(NCCCN1CCC(Cc2ccccc2)CC1)C1CCN(S(=O)(=O)N2CCC3(CC2)OCCO3)CC1,3,5,0,-8,i,12,5,nt,
CCN(CC)C(=O)C1=C(C)N(Cc2ccc(C(C)(C)C)cc2)C(=O)C(CC(=O)NCCc2ccccn2)C1 (stereo not given),5,7,nt,nt,nt,nt,15,-2,
O=C(NC1CCCC1)c1cc(S(=O)(=O)N2CCCC2)ccc1Cl,-2,-1,-6,-2,i,-12,-15,-25,
COc1cc(NC(=O)C(C)Oc2ccccc2)cc(OC)c1 (stereo not given),-4,-2,-3,0,i,-12,-21,-11,
COC(=O)c1ccn(C(=O)c2ccc(Cl)cc2)n1,5,1,-4,-2,i,-13,-14,1,
Cc1ccc(C(=O)Nn2cnnc2)cc1Cl,0,2,-6,-6,i,-9,7,-13,
CCc1cc(=O)oc2cc(C)cc(OC(C)C(=O)NCCCN3CCOCC3)c12 (stereo not given),0,4,-8,-6,i,15,9,-7,
Cc1ccc(F)cc1C(=O)N1CCCC(c2cc(C(=O)Nc3ccccc3Cl)no2)C1 (stereo not given),7,-5,nt,nt,nt,nt,-1,-15,
CN1CCN(C2=C(Cl)C(=O)C(c3cnc(N4CCCCC4)s3)=C(Cl)C2=O)CC1,12,7,39,13,i,?,nt,-7,
C[C@@H]1CCC2[C@](C)(CO)[C@@H](O)CC[C@]2(C)[C@@]12C[C@](CO)(CC(=O)O)CO2 (stereo not given in full),2,3,-2,-8,i,3,-4,-1,
Cc1c2cnn(CC(=O)N3CCN(c4ncccn4)CC3)c(=O)c2c(C)n1Cc1ccc(F)cc1,nt,nt,-16,3,i,1,nt,nt,
OC(Cn1cnnc1)c1ccccc1 (stereo not given),6,3,-3,8,i,14,8,nt,
COc1ccc(C(c2c(NC(=O)c3ccco3)sc(C)c2C)N2CCOCC2)cc1OC (stereo not given),-8,-3,nt,nt,nt,nt,-1,-6,
# Additional entries.
SMILES,MT1-MMP act inh,MT1-MMP act inh RFP,CSC inhib,PABP FP inh,Rce1 inh,eIF4H inh,Env fusion inh,Yeast UUG start,others
COc1ccc(-n2c3c(cc(C(=O)N4CCN(CCO)CC4)c2=O)C(=O)CC(C)(C)C3)cc1,4,8,-13,-11,i,-5,nt,-3,
COc1ccc(CC(=O)OCC(=O)NC(=O)NC2CCCCC2)cc1,1,1,-10,-7,i,1,-1,-7,
O=C(NCCCn1ccnc1)c1ccc(N2CCCCCC2)c([N+](=O)[O-])c1,4,-4,60,8,i,-11,-2,nt,
CCOC(=O)C1CCCN(C(=O)c2sc3nc(C)nc(N4CCOCC4)c3c2C)C1 (stereo not given),1,-1,nt,0,i,2,-89,16,
CS(=O)(=O)Nc1ccc2c(c1)[C@@H]1C[C@@H](CC(=O)NCc3cccnc3)O[C@H](CO)[C@@H]1O2,1,2,nt,nt,nt,nt,7,-16&-13,
O=[N+]([O-])/C(C(Cl)=C(Cl)Cl)=C1\Nc2ccccc2O1,-1,4,9,18,i,-3,-5,nt,
Cc1ccc(OCC(=O)Nn2cnnc2)c(Br)c1,3,3,3,-10,i,-3,-5,-19,
Cc1c(NC(=O)c2ccccc2NC(=O)COc2ccccc2)cccc1C(=O)O,-1,1,-9,6,i,1,5,-16,
CC(=O)c1c(C)oc2ccc(NS(=O)(=O)c3cccs3)cc12,1,-5,-6,-5,i,-2,11,nt,
Cc1cccc(NN=C2c3ccccc3-c3ccccc32)c1,1,-1,-5,-5,i,-9,-15,nt,
Cc1c(NC(=O)Nc2ccc(F)cc2)c(=O)n(-c2ccccc2)n1C,1,4,-16,8,i,0,-24,-8,
O=C(NCc1c(O)ccc2ccccc12)c1ccccc1,4,-4,3,-9,i,0,4,-5,
COc1ccc(OC)c(C(=O)COC(=O)CNC(=O)C2CCCCC2)c1,-4,-3,-15,32,i,-13,-88,-16,
CC(C)(C)S(=O)(=O)c1cnc2c(-c3ccc(F)cc3)cnn2c1N,6,-4,1,-6,i,-2,-4,-15,
COc1ccc(-c2[nH]ncc2/C=N\NS(=O)(=O)c2ccccc2)cc1OC,6,2,4,-6,i,-14,nt,-16,
COc1ccc(CNC(=S)N/N=C/c2ccncc2)cc1,2,4,-21,9,i,-6,7,-10,
Fc1ccccc1N1CCN(CCCc2ccccc2)CC1,3,1,17,8,i,5,-7,-15,
CC(C)N(Cc1ccccc1)C(=O)COC(=O)c1cc(S(=O)(=O)N(C)C)ccc1N1CCCC1,-6,-5,-4,nt,nt,nt,7,-9,
Cc1ccc(C)c(S(=O)(=O)Nc2ccc3cn[nH]c3c2)c1,-2,-1,12,nt,nt,nt,nt,-11,
